Compound activity deposited in PubChem BioAssay by National Center for Advancing Translational Sciences (NCATS).
MARV entry inh = Marburg virus entry inhibition; 300,000 tested, 1.8% active; Potency, µM (series often up to 37.8 µM), for inactives: top-dose activity change, negative = inhibition, most hits filed as inhibitors; Marburg virus pseudotyped entry inhibition, cell reporter; control for the full effect not named in the record; about a third of the inactives were read at about 46 µM; active = well fitted inhibition curve with a large enough effect; inconclusive = small, poorly fitted or top-dose-only effect, or effect the other way; inactive = flat fitted curve, though single readings scatter; tested in HEK293 cells; about a fifth of its hits are not listed in these tables; note: % is set by controls: 0 for no effect and ±100 for the full control effect; luciferase read-out
RE007 growth inh = less growth of the S. pombe RE007 Vpr strain. S. pombe RE007 Vpr strain, BacTiter-Glo ATP luminescence, 24 h; control for the full effect not named in the record. Potency, µM (titrated, usually from 92.2 µM), for the others: at the highest dose activity change, negative = less growth. 360,000 tested, 0.21% active. AID 651644; active = well fitted falling curve with a large enough effect; inconclusive = small, poorly fitted or top-dose-only effect; inactive = no such curve, though single readings can be large or run the other way;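 note: % is set by controls: 0 for no effect and ±100 for the full control effect; nearly all actives have a fitted effect of over 50% in size; the assay follows cell death caused by Vpr and the record does not say whether a fall means rescue or toxicity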
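Fission yeast strain RE007, carrying one chromosomally integrated HIV-1 vpr copy, was seeded at OD 0.01 in PMG+AL medium with 23 nL pinned compound. After 24 h at 30 °C and 99% humidity, viability was read by BacTiter-Glo luminescence.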
Cruzain inh noDet = blocks cruzain activity in detergent-free assay; P25779; purified cruzain, Z-FR-AMC fluorescence, no detergent; Potency, µM, for the others: max response, negative = inhibition, usual class: inhibitors; 200,000 tested, 2.3% active;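 note: plate controls were enzyme without inhibitor for no effect and buffer without enzyme for full effect; nearly all actives have a fitted effect of over 40% in size; top concentration of the series not given in the record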
Target sequence (P25779 123-467 limits assumed): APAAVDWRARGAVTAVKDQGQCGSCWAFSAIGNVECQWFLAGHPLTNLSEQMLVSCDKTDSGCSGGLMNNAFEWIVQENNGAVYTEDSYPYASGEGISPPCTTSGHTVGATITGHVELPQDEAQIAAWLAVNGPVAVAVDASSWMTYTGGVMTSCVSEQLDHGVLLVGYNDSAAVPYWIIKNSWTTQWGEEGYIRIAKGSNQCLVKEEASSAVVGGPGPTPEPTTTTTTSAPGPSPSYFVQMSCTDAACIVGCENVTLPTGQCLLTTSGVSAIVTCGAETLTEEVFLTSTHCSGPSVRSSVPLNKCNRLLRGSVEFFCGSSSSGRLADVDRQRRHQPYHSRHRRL
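Detergent-free condition (0.00005% Triton X-100) in acetate buffer pH 5.5 with DTT. 1.5 nM enzyme and compound were pre-mixed 15 min, then 2 uM Z-FR-AMC substrate added; reaction progress from fluorescence change between first and third reads (60 s).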
NS1 function inh = blocks influenza NS1 protein function; AID 2326; S. cerevisiae slowed by influenza A NS1, growth recovery by OD600; Potency, µM (series often up to 46.1 µM), for the others: at the top dose activity, positive = more growth; 270,000 tested, 0.4% active; active means well fitted rising curve with a large enough effect; inconclusive means small, poorly fitted or top-dose-only effect; inactive means no such curve, though single readings can be large or run the other way; note: nearly all actives have a fitted effect of over 50% in size
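S. cerevisiae expressing influenza A NS1, grown in glucose, washed, then diluted 1:100 into pH 6.0 -URA galactose medium with 23 nl compound. Growth recovery read as OD600; NS1-free strain serves as control.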
Lassa entry inh = inhibitors of Lassa virus binding or cell entry; 300,000 tested, 1.2% active; Potency, µM (highest dose often 37.9 µM), for inactives: top-dose activity change, negative = inhibition, most hits filed as inhibitors; Lassa virus pseudotype entry inhibition, cell reporter; control for the full effect not named in the record; active means well fitted inhibition curve with a large enough effect; inconclusive means small, poorly fitted or top-dose-only effect, or effect the other way; inactive means flat fitted curve, though single readings scatter; tested in HEK293 cells; note: % is set by controls: 0 for no effect and ±100 for the full control effect; nearly all actives have a fitted effect of over 50% in size; luciferase read-out
2A StopGo = FMDV 2A StopGo reporter, luciferase signal. human cells with a luciferase reporter of 2A StopGo recoding; control for the full effect not named in the record. Potency, µM (highest dose often 57.9 µM), for the others: at the highest dose signal change, negative = less light. 410,000 tested, 1.2% active. AID 1159524; active = well fitted falling curve with a large enough effect; inconclusive = small, poorly fitted or top-dose-only effect; inactive = no such curve, though single readings can be large or run the other way; tested in HEK293T cells; note: % is set by controls: 0 for no effect and ±100 for the full control effect; nearly all actives have a fitted effect of over 45% in size; luciferase light after 4 h
SARS PLpro yeast = inhibitors of SARS-CoV papain-like protease in yeast; S. cerevisiae expressing SARS-CoV PLpro, growth rescue; control for the full effect not named in the record; Potency, µM (doses to about 32.9 µM), for the others: at the highest dose activity, positive = growth rescue; 330,000 tested, 0.19% active; active means well fitted rising curve with a large enough effect; inconclusive means small, poorly fitted or top-dose-only effect; inactive means no such curve, though single readings can be large or run the other way; note: 0% is about no effect; nearly all actives have a fitted effect of over 55% in size; growth read by luminescence after 48 h
Cruzain inh Det = blocks cruzain activity in presence of Triton detergent. P25779. purified cruzain, Z-FR-AMC fluorescence, 0.01% Triton. Potency, µM, for inactives: max response, negative = inhibition, usual class: inhibitors. 200,000 tested, 0.43% active;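 note: plate controls were neutral wells for no effect and buffer without enzyme for full effect; nearly all actives have a fitted effect of over 40% in size; top concentration of the series not given in the record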
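15 min RT preincubation of 1.5 nM cruzain with compound, then 2 uM Z-FR-AMC added; kinetic AMC fluorescence, 60 s delta. Triton X-100 0.01%, pH 5.5.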
The depositor's hits bear a star; ? = inconclusive; nt = no result given; [ ] = dose if it differs, or a comment. Unless noted, calls come from the whole dose curve; as a rule, active = well fitted curve in the direction sought with a large enough effect; inconclusive = small, poorly fitted or top-dose-only effect, or another doubt; inactive = no such curve, though single readings can be large; an effect the other way counts as inactive or inconclusive. Potency is the fitted concentration of half-maximal effect.

Value order – MARV entry inh | RE007 growth inh | Cruzain inh noDet | NS1 function inh | Lassa entry inh | 2A StopGo | SARS PLpro yeast | Cruzain inh Det
- CC(=O)Nc1ccc(SC(C)C(=O)NC(N)=O)cc1 (stereo not drawn)
  -2% | 2% | -9% | 0% | 0% | 20% | 4% | 3.6%
- COC(=O)C(c1ccccc1)N(Cc1cccc(CN(C(C(=O)OC)c2ccccc2)S(C)(=O)=O)c1)S(C)(=O)=O (stereo not drawn)
  nt | 3% | nt | 17% | nt | -11% | 9% | nt
- COc1ccc(CN2CCNC(=O)C2CC(=O)NC2CCCCCCC2)cc1C (stereo not drawn)
  nt | -1% | nt | 1% | nt | 14% | -3% | nt
- Cc1ccn2c(Nc3ccc(C(C)C)cc3)c(-c3cccnc3)nc2c1
  ? | nt | 5% | nt | ? | ? | nt | -17%
- CC1(c2nnc(-c3ccccc3)o2)CC(c2ccc(Cl)cc2)=NO1 (stereo not drawn)
  nt | 4% | nt | -76% | nt | -6% | -3% | nt
- COc1cc(C(=O)NC(C)C2CC3CCC2C3)cc(OC)c1OC (stereo not drawn)
  0% | 4% | nt | -10% | ? | -12% | -2% | nt
- Cc1ccc(CSc2nnc(SCC(=O)N/N=C/c3c[nH]c4ccccc34)s2)cc1
  ? | -24% | nt | nt | ? | 6% | -1% | nt
- CC(C)CN(C(=O)CCC(=O)OCC(=O)c1ccc(F)c(F)c1)c1c(N)n(CC(C)C)c(=O)[nH]c1=O
  -1%[46.1 µM] | -19% | nt | 24% | 3%[46.1 µM] | -8% | nt | nt
- COc1ccccc1-n1cnnc1SC(C)C(=O)Nc1cccc([N+](=O)[O-])c1 (stereo not drawn)
  21% | -11% | 4% | -5% | 7% | -12% | 6% | -4.1%
- CCCOc1ccc(C2=NC(c3ccc(F)cc3)=Nc3ccc(OC)cc3N2)cc1
  1%[46.1 µM] | nt | 10µM* | nt | -19%[46.1 µM] | 17% | nt | -3.9%
- CCOC(=O)c1nnn2c1nc(SCC(C)=O)c1ccccc12
  7% | 0% | nt | -1% | 0% | -13% | -1% | nt
- COc1ccc(OC)c(C(=O)c2ccc(C(=O)Nc3cccc4ccccc34)cc2)c1
  ? | 16% | 25µM* | 12% | -18% | ? | 9% | -4.4%
- Cc1ccccc1N=C1NC(=O)/C(=C/c2cccnc2)S1
  nt | 7% | nt | 2% | nt | -21% | 0% | nt
- CCn1nnc2cc(C(=O)Nc3cccc(C(F)(F)F)c3)ccc21
  nt | nt | -15% | nt | -8%[46.1 µM] | -16% | nt | 0.5%
- Cn1ccnc1Sc1cc(NCCCO)c([N+](=O)[O-])c2nonc12
  ? | -1% | nt | nt | ? | 25µM* | -9% | nt

Brought forward from above: 3 entries, then new ones.
Value order – MARV entry inh | RE007 growth inh | Cruzain inh noDet | NS1 function inh | Lassa entry inh | 2A StopGo | SARS PLpro yeast | Cruzain inh Det
- Cc1ccccc1N=C1NC(=O)/C(=C/c2cccnc2)S1
  nt | 7% | nt | 2% | nt | -21% | 0% | nt
- CCn1nnc2cc(C(=O)Nc3cccc(C(F)(F)F)c3)ccc21
  nt | nt | -15% | nt | -8%[46.1 µM] | -16% | nt | 0.5%
- Cn1ccnc1Sc1cc(NCCCO)c([N+](=O)[O-])c2nonc12
  ? | -1% | nt | nt | ? | 25µM* | -9% | nt
- Cc1ccc(NC(=O)CSc2nnc(Cc3ccccc3)c(=O)[nH]2)c(C)c1
  0%[46.1 µM] | -14% | nt | nt | 4% | -13% | 2% | nt
- C1=C(c2ccccc2)N2CCN=C2S1
  7% | 18% | 1% | 2% | -3% | 14% | -2% | -5.0%
- O=C(NNC(=S)NC(=O)c1ccccc1[N+](=O)[O-])c1ccccc1
  -23%[46.1 µM] | 16% | 1% | -11% | 5% | -14% | 6% | -7.0%
- Cc1ccc(OCCCCn2c(CCNC(=O)C(C)(C)C)nc3ccccc32)cc1
  ? | nt | ? | nt | -18%[46.1 µM] | -24% | nt | -1.8%
- c1ccc(C2CNCc3c2ccc2ccccc32)cc1 (stereo not drawn)
  ? | -16% | -6% | -31% | ? | -12% | -2% | -0.1%
- Cc1nnc(NC(=O)CSc2nnc(CNC(=O)c3ccccc3)n2-c2ccccc2)s1
  -9% | -7% | 1% | -3% | nt | -7% | -4% | 2.0%
- CCOC(=O)C1CCN(c2c(NCCN(CC)c3ccccc3)c(=O)c2=O)CC1
  nt | 5% | nt | -1% | nt | -4% | 0% | nt
- O=C(NC(C(=O)N/N=C/c1ccccn1)c1n[nH]c(=O)c2ccccc12)c1ccccc1 (stereo not drawn)
  3%[46.1 µM] | 13% | nt | 7% | 14% | 23% | 0% | nt
- CCCCc1nnc(NC(=O)c2nc3nccc(C)n3n2)s1
  12%[14.2 µM] | -15% | nt | nt | 12% | -3% | -3% | nt
- CCC(CC)C(=O)NCCc1ccc(S(N)(=O)=O)cc1
  -1% | -2%[3.69 µM] | 7% | 4% | 1% | 4% | 5% | -1.0%
- CC1=C(C(=O)Nc2cccnc2)C(c2ccc3c(c2)OCO3)C2=C(CCCC2=O)N1 (stereo not drawn)
  5% | -1% | -2% | 0% | 9% | 5% | -5% | -14%
- Cc1sc2nc(SC3CCOC3=O)n(Cc3ccccc3)c(=O)c2c1C (stereo not drawn)
  6%[46.1 µM] | -7% | nt | 5% | 25% | -5% | -2% | nt
- CCC(=O)Nc1sc2c(c1C(=O)Nc1ccccc1C)CCC(C)C2 (stereo not drawn)
  nt | nt | -8% | nt | ? | -18% | nt | -1.2%
- O=C(Nc1ccccc1F)c1c[nH]c(=O)[nH]c1=O
  29%[46.1 µM] | -6% | nt | 1% | 8% | 20% | 1% | nt
- O=C(CSCc1ccc(F)cc1)N1CCc2c([nH]c3ccccc23)C1c1ccccc1 (stereo not drawn)
  nt | nt | -80% | nt | ? | -15% | nt | 4.4%
- CCOC(=O)C(=O)NCC(c1cccs1)S(=O)(=O)c1ccc(F)cc1 (stereo not drawn)
  22%[46.1 µM] | 5% | nt | nt | -16% | -8% | nt | nt
- O=C(Cc1ccc(Cl)cc1)Nc1ccccc1C(=O)N1CCCC1
  -7% | -5% | nt | 12% | 4% | 12% | nt | nt
- O=C(CCCc1ccccc1)NC1CC(=O)N(c2ccc(F)cc2)C1 (stereo not drawn)
  nt | nt | 1% | nt | -19%[46.1 µM] | -13% | nt | -0.5%
- CC(C)(C)C(=O)c1cnc(Nc2ccccc2)s1
  7% | -25% | -11% | -9% | ? | 44%[activator] | nt | 0.2%
- CCC(Sc1ccc(C(=O)O)cc1)C(=O)O (stereo not drawn)
  13% | 15% | 1% | 5% | 16% | 19% | 10% | -0.1%
- Cc1cccc(C(=O)O/N=C(/c2ccccc2)c2ccncc2)c1
  21% | -3% | nt | -37% | -5% | ? | -3% | nt
- Cc1oc2c(C)c3oc(=O)c(CCC(=O)NCCCn4ccnc4)c(C)c3cc2c1C
  nt | -23% | nt | 0% | nt | -13% | 7% | nt
- Cc1cc(C)c2[nH]c(=O)c(CN(C(=O)C3CCCO3)C3CCCC3)cc2c1 (stereo not drawn)
  -1% | nt | -4% | -5% | nt | nt | 8% | -4.7%
- O=C1NC(c2ccccc2)C(C(=O)c2cccs2)=C1O (stereo not drawn)
  -2% | 14% | -12% | -7% | 1% | 36%[activator] | -2% | 6.2%
- Brc1cccc(-c2nn(-c3ccccc3)c3c2cnc2cc4c(cc23)OCO4)c1
  6%[46.1 µM] | nt | ? | nt | 25%[46.1 µM] | -21% | nt | -0.5%
- C=C(C)COc1ccc(-c2nc(N)ncc2-c2ccc(Br)cc2)c(O)c1
  nt | 13% | nt | 11% | nt | -19% | -5% | nt
- COc1ccc(N(CC(=O)NN=C2CCCCCCC2)S(=O)(=O)c2ccccc2)cc1
  -11% | -11% | -7% | 5% | 11% | nt | 1% | 2.0%
- COc1cc(OC)cc(C(=O)NCC(=O)Nc2ccc(OC)c(Cl)c2)c1
  6%[46.1 µM] | 10% | nt | 1% | -3%[46.1 µM] | 13% | 2% | nt
- Cc1cc(NS(=O)(=O)c2ccc(NC(=O)CSc3nc4ncc(Br)cc4[nH]3)cc2)nc(C)n1
  nt | -4% | nt | -2% | nt | 10% | 1% | nt
- Cc1nnsc1C(=O)N1CCCC(N2CCN(c3cccc(C(F)(F)F)c3)CC2)C1 (stereo not drawn)
  nt | 5% | nt | -6% | nt | -5% | -2% | nt
- COc1ccc(CCNC(=O)CC(=O)N/N=C/c2ccc(C(=O)O)cc2)cc1OC
  -4% | -1% | nt | 21% | -2% | 12% | 2% | nt

By substructure: those above with a Cl atom (three)
Value order – MARV entry inh | RE007 growth inh | Cruzain inh noDet | NS1 function inh | Lassa entry inh | 2A StopGo | SARS PLpro yeast | Cruzain inh Det
- CC1(c2nnc(-c3ccccc3)o2)CC(c2ccc(Cl)cc2)=NO1 (stereo not drawn)
  nt | 4% | nt | -76% | nt | -6% | -3% | nt
- O=C(Cc1ccc(Cl)cc1)Nc1ccccc1C(=O)N1CCCC1
  -7% | -5% | nt | 12% | 4% | 12% | nt | nt
- COc1cc(OC)cc(C(=O)NCC(=O)Nc2ccc(OC)c(Cl)c2)c1
  6%[46.1 µM] | 10% | nt | 1% | -3%[46.1 µM] | 13% | 2% | nt

Quoted at random: two compounds from above
Value order – MARV entry inh | RE007 growth inh | Cruzain inh noDet | NS1 function inh | Lassa entry inh | 2A StopGo | SARS PLpro yeast | Cruzain inh Det
- O=C(CSCc1ccc(F)cc1)N1CCc2c([nH]c3ccccc23)C1c1ccccc1 (stereo not drawn)
  nt | nt | -80% | nt | ? | -15% | nt | 4.4%
- CC(C)(C)C(=O)c1cnc(Nc2ccccc2)s1
  7% | -25% | -11% | -9% | ? | 44%[activator] | nt | 0.2%
